Bfl-1 A1 inh: inhibitors of the anti-apoptotic protein A1, read as caspase activation | caspase activation, % (no concentration beside the values) | MEF A1-2A-BIM cells, Caspase-Glo 3/7 luminescence, 3 h; percent of clofoctol response, vehicle zero | AID 2462 | 330,000 tested, 0.066% active;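 active = over half of replicate activation scores above 10%, or exactly half above 10 with the replicate mean above 10; inconclusive = replicate mean below 10 yet half the replicates above 10; inactive = over half of replicates below 10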;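 also: wells of about 30 µL received 50 nL stock; many hits fall short of the cut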
Ecoli rRNA inh: inhibitors of bacterial rRNA selective over humanized ribosomes; E. coli WT GFP vs humanized-ribosome RFP mutants, fluorescence, 24 h; hits give low values; DMSO median 0, no signal -100; GFP signal change (wild-type ribosome), % (test concentration not listed); 350,000 tested, 1.6% active;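 active = significant combined selectivity score with lowered wild-type GFP, culture density cut under 30%, mutant RFP and density less affected; inactive = any of these conditions unmet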; also: one replicate is shown; some compounds called inactive have numbers as strong as hits
RanGTP-Impb inh: inhibitors of RanGTP-importin-beta interaction, primary screen, biochemical, FRET, CFP-Ran, YFP-importin-beta, homogeneous; cell-free CFP-Ran/YFP-importin-beta FRET ratio; inhibition, % (concentration not given with the values); 300,000 tested, 1.1% active;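 active = most replicates above 15%; inconclusive = exactly half above 15%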;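 also: 0% = DMSO wells and 100% = Ran loaded with GDP instead of GTP; wells of about 40 µL received 100 nL stock; the first replicate is given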
Beta cell apopt: beta cell apoptosis inhibition | INS-1E cytokine-induced death, ATP luminescence, 48 h; percent of positive-control rescue, neutral wells zero | protection from apoptosis, % (concentration not given with the values) | 300,000 tested, 0.8% active | AID 435005;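 active = all replicates at 75% or more, or half of them and the mean; inconclusive = half reach 75% but not the mean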;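 also: 0% = cytokine-treated negative control wells and 100% = positive control rescue; higher means more ATP so stronger rescue from cytokine killing; wells of about 40 µL received 100 nL stock; the first replicate is given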
Vif TR-FRET: inhibitors of Vif binding to APOBEC3G peptide, primary screen, biochemical, TR-FRET, GST-Vif 1-94, biotin-A3G peptide, dose response retest (AID 1117319); TR-FRET GST-Vif / biotin-A3G peptide binding; higher % means a stronger effect; test concentration not given here; strong numbers were not always called active; inhibition, %; hits with a dose series show IC50 in µM; 260,000 tested, 0.57% active;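 active = above the screen mean plus three standard deviations and confirmed in dose response; inconclusive = results disagree or hit not tested in dose response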;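 also: Vif residues 1-94 fused to GST binding biotinylated APOBEC3G peptide 110-148; 0% = full assay without inhibitor and 100% = GST in place of GST-Vif; retest series ran down from 100 µM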
Calb FLC: C. albicans growth modulation with fluconazole; C. albicans CaCi-2 (fluconazole-resistant clinical isolate) + fluconazole, Alamar Blue growth, 48 h; growth inhibition, % (no concentration beside the values); 300,000 tested, 0.57% active;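 active = most replicates above 75%; inconclusive = exactly half above 75%; inactive = most below 75%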;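 also: all wells also contain fluconazole at 8 µg/ml as a sub-toxic cotreatment; 0% = median of DMSO wells and 100% = median of geldanamycin control wells; wells of about 8 µL received 7.5 nL stock; the first replicate is given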
AF4-AF9 inh: inhibitors of human MLL-AF4/AF9 interaction; inhibition, % at 10 µM; AlphaScreen, biotin-AF4 peptide binding to FLAG-AF9; 350,000 tested, 0.47% active; AID 651704; P42568;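 active = every replicate reaching a set inhibition limit, whatever the replicate mean, cut at about 25% in these data; inconclusive = mean inhibition reaches that limit but some replicates miss it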;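 also: 0% = plate neutral control median and 100% = total signal loss; the record names both 10 and 1 µM as test concentration; the first replicate is given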
Target sequence (P42568 whole entry, looked up): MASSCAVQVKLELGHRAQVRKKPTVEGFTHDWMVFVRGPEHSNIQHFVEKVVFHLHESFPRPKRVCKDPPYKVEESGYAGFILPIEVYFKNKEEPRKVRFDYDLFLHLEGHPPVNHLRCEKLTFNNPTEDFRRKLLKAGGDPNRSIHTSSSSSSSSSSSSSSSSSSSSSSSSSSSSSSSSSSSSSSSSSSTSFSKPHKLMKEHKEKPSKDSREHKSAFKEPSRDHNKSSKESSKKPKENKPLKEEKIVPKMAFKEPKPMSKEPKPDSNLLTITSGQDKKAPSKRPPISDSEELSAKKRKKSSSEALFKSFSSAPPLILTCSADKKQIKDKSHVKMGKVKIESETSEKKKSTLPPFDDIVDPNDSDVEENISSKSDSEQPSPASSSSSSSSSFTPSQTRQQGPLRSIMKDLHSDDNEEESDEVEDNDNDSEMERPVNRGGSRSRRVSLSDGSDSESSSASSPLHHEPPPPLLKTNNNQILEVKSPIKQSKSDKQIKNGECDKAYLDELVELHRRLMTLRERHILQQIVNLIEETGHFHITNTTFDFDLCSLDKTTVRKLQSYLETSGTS
T cruzi inh: T. cruzi replication inhibition. inhibition, % (test concentration not listed). 300,000 tested, 1.4% active. T. cruzi beta-gal in NIH3T3, luminescence, 90 h;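 active = mean inhibition across valid replicates above about 55%, limit read from the data; inconclusive = mean below that limit but half or more replicates reach it; inactive = mean below it, under half of replicates reach it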;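 also: signal also drops with host cell toxicity which is not excluded here; 0% = plate median of DMSO wells and 100% = zero luminescence signal; higher percent means less beta-gal luminescence so fewer parasites; stock transfer was 50 nL into about 50 µL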
Ecoli rRNA inh OD600: second read-out of Ecoli rRNA inh, no call of its own (marks repeat the call); OD600 change, %; measured here: OD600 growth;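 optical density of the mix in the first replicate; 0 = DMSO median and -100 = no signal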
Ecoli rRNA inh RFP: further read-out of Ecoli rRNA inh, marked with its call; RFP signal change, %; measured here: RFP humanized mutant strains;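 first replicate; 0 = DMSO median and -100 = no signal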
An asterisk follows results filed as active; ? = inconclusive; . = not tested or not shown; & = joins results of further samples.

1) CC(C)(C)c1ccc(C(=O)N2CCN(Cc3ccccc3)CC2)cc1
2) Cc1noc(C)c1COC(=O)c1cccnc1Cl
3) Nc1nnc2c(C(F)(F)F)nc3ccccc3n12
4) Cc1oc(C(=O)O)cc1COc1ccc2c3c(c(=O)oc2c1)CCC3
5) O=C(C1COc2ccccc2O1)N1CCN(c2ccccn2)CC1 (stereo unspecified)
6) CC1CCCCN1CCCNC(=O)C1CCN(c2nnc(-n3cccc3)s2)CC1 (stereo unspecified)
assay / entry | 1 | 2 | 3 | 4 | 5 | 6
Ecoli rRNA inh RFP | -1.8 | -4.4 | -2.1 | . | 1.9 | 0.5
Bfl-1 A1 inh | 0.5 | -0.2 | -0.6 | -0.3 | -0.6 | 1.8
Beta cell apopt | -1 | -1 | -2 | -5 | -9 | -6
Vif TR-FRET | . | -4% | 3% | 17% | 3% | .
Ecoli rRNA inh | -9 | 3 | 2 | . | 2 | 12
T cruzi inh | 8 | -12 | 2 | 4 | -6 | 13
Calb FLC | 2 | -10 | -2 | 3 | . | 2
RanGTP-Impb inh | 0.5 | 2.1 | -1.0 | -2.4 | -0.4 | 3.0
AF4-AF9 inh | 1.9 | -1.9 | -5.1 | . | 0.5 | 7.9
Ecoli rRNA inh OD600 | -5 | 8 | 1 | . | 5 | 18

7) CCOc1ccc(Br)cc1S(=O)(=O)Nc1nc(CN2CCOCC2)nc2sc(C)c(C)c12
8) O=S(=O)(Nc1ccc2c(c1)OCCO2)c1ccc(F)cc1
9) O=C(COc1ccccc1-c1ccccc1)NCc1cccc(Cl)c1
10) Cc1onc(-c2ccccc2)c1C(=O)Nc1ccccc1N1CCOCC1
11) COc1ccccc1NC(=O)CCNS(=O)(=O)c1ccc2c(c1)CC(C)N2C(=O)C1CC1 (stereo unspecified)
12) CCO[C@@H]1OC(C(=O)N2CCN(Cc3ccc4c(c3)OCO4)CC2)=C[C@H](C)[C@H]1CCCO
assay / entry | 7 | 8 | 9 | 10 | 11 | 12
Ecoli rRNA inh RFP | . | . | -7.2 | . | -0.3 | 4.3
Bfl-1 A1 inh | -0.1 | -0.4 | -0.2 | 0.1 | -0.9 | 0.8
Beta cell apopt | 4 | 3 | -3 | -2 | . | -2
Vif TR-FRET | -5%&27% | 4% | . | 28% | 1% | 4%
Ecoli rRNA inh | . | . | -13 | . | -8 | 5
T cruzi inh | 0 | -19 | 34 | -5 | -4 | -1
Calb FLC | 16 | -31 | 8 | 6 | -7 | -6
RanGTP-Impb inh | -1.7 | -0.6 | -6.4 | 0.9 | -0.8 | -2.1
AF4-AF9 inh | . | . | 1.4 | . | 1.4 | -14&3.5
Ecoli rRNA inh OD600 | . | . | -15 | . | -13 | 9

13) CCSc1nc2sc3c(c2c(=O)n1CC)CC(C)(C)OC3
14) Cc1cccc(OCC(=O)Nc2ccc(C(=O)c3ccc(C(=O)O)cc3)cc2)c1
15) CN(CC(=O)Nc1ccccc1Cl)C(=O)COC(=O)/C=C/c1ccc(C(F)(F)F)cc1
16) CC(=O)N1c2ccc(S(=O)(=O)N3CCC(C(=O)N4CCCCC4)CC3)cc2CC1C (stereo unspecified)
17) CCCCn1nnnc1SCC(=O)Nc1sc2c(c1C#N)CCCC2
18) Brc1ccc(-c2nnc3sc(CN4CCN(c5ccccc5)CC4)cn23)cc1
assay / entry | 13 | 14 | 15 | 16 | 17 | 18
Ecoli rRNA inh RFP | . | -2.7 | 3.3 | -0.9 | . | 1.1
Bfl-1 A1 inh | 0.5 | -0.1 | 0.3 | 0.4 | 1.3 | 1.3
Beta cell apopt | 3 | -1 | 1 | 10 | -9 | -5
Vif TR-FRET | 3% | 5% | . | . | -1% | 0%
Ecoli rRNA inh | . | -16 | -1 | 3 | . | 13
T cruzi inh | -5 | -9 | -9 | 10 | 2 | -10
Calb FLC | -14 | -7 | -4 | 1 | 42 | ?
RanGTP-Impb inh | -1.1 | -0.1 | 6.0 | -1.5 | ? | -2.8
AF4-AF9 inh | . | -1.6 | 1.3 | 2.4 | . | 9.2
Ecoli rRNA inh OD600 | . | -8 | 6 | 8 | . | 1

4 compounds drawn at random from those above:
12) CCO[C@@H]1OC(C(=O)N2CCN(Cc3ccc4c(c3)OCO4)CC2)=C[C@H](C)[C@H]1CCCO
1) CC(C)(C)c1ccc(C(=O)N2CCN(Cc3ccccc3)CC2)cc1
14) Cc1cccc(OCC(=O)Nc2ccc(C(=O)c3ccc(C(=O)O)cc3)cc2)c1
15) CN(CC(=O)Nc1ccccc1Cl)C(=O)COC(=O)/C=C/c1ccc(C(F)(F)F)cc1
assay / entry | 12 | 1 | 14 | 15
Ecoli rRNA inh RFP | 4.3 | -1.8 | -2.7 | 3.3
Bfl-1 A1 inh | 0.8 | 0.5 | -0.1 | 0.3
Beta cell apopt | -2 | -1 | -1 | 1
Vif TR-FRET | 4% | . | 5% | .
Ecoli rRNA inh | 5 | -9 | -16 | -1
T cruzi inh | -1 | 8 | -9 | -9
Calb FLC | -6 | 2 | -7 | -4
RanGTP-Impb inh | -2.1 | 0.5 | -0.1 | 6.0
AF4-AF9 inh | -14&3.5 | 1.9 | -1.6 | 1.3
Ecoli rRNA inh OD600 | 9 | -5 | -8 | 6

(more compounds)
19) CSCCC(Nc1ncnc2ccc(Br)cc12)C(=O)O (stereo unspecified)
20) COc1ccc(C2c3cc(OC)c(OC)cc3CCN2C(=O)c2cccc([N+](=O)[O-])c2)cc1OC (stereo unspecified)
21) C/C=C/C(=O)Nc1cccc(C(F)(F)F)c1
22) COc1ccccc1NC(=O)C(C)OC(=O)C1CCN(S(=O)(=O)c2ccc(C)c(C)c2)CC1 (stereo unspecified)
23) Cc1ccc2c(c1)-n1c(nc3ccccc3c1=O)C(Cc1ccc(O)cc1)NC2=O (stereo unspecified)
24) O=C(O)c1cnccn1
assay / entry | 19 | 20 | 21 | 22 | 23 | 24
Ecoli rRNA inh RFP | -3.6 | -0.9 | 1.3 | -1.2 | 0.0 | -1.1
Bfl-1 A1 inh | 0.4 | 0.2 | -0.5 | 0.3 | -0.1 | -0.3
Beta cell apopt | -3 | -2 | -1 | 5 | -10 | 0
Vif TR-FRET | -10% | -1% | ? | . | . | ?
Ecoli rRNA inh | 8 | -4 | 6 | -4 | -2 | 5
T cruzi inh | 1 | 20 | -7 | 4 | . | 2
Calb FLC | -5 | -1 | -3 | 5 | . | .
RanGTP-Impb inh | -3.1 | 1.9 | -2.2 | -0.9 | . | -1.8
AF4-AF9 inh | 3.7 | 11 | 0.2 | -1.3 | 2.3 | -1.2
Ecoli rRNA inh OD600 | 8 | -3 | -4 | -8 | -3 | 7

Three entries already listed, arranged by molecular weight, smallest number first.
21) C/C=C/C(=O)Nc1cccc(C(F)(F)F)c1
19) CSCCC(Nc1ncnc2ccc(Br)cc12)C(=O)O (stereo unspecified)
20) COc1ccc(C2c3cc(OC)c(OC)cc3CCN2C(=O)c2cccc([N+](=O)[O-])c2)cc1OC (stereo unspecified)
assay / entry | 21 | 19 | 20
Ecoli rRNA inh RFP | 1.3 | -3.6 | -0.9
Bfl-1 A1 inh | -0.5 | 0.4 | 0.2
Beta cell apopt | -1 | -3 | -2
Vif TR-FRET | ? | -10% | -1%
Ecoli rRNA inh | 6 | 8 | -4
T cruzi inh | -7 | 1 | 20
Calb FLC | -3 | -5 | -1
RanGTP-Impb inh | -2.2 | -3.1 | 1.9
AF4-AF9 inh | 0.2 | 3.7 | 11
Ecoli rRNA inh OD600 | -4 | 8 | -3

The results go on.
25) Cn1cc(C(=O)c2ccc(Cl)cc2Cl)cc1C(=O)N/N=C(\N)COc1ccc(Cl)cc1
26) C=CCNC(=O)C1CC(=O)N(c2ccc(OCC(=O)Nc3c(C)cccc3C)cc2)C1 (stereo unspecified)
27) Cc1nc(SCC(=O)N(C)C2CCS(=O)(=O)C2)c2ccccc2n1 (stereo unspecified)
28) CCc1noc(C)c1C(=O)Nc1nc(-c2cc(C)ccc2C)c(C)s1
assay / entry | 25 | 26 | 27 | 28
Ecoli rRNA inh RFP | 32 | -3.7 | 0.5 | .
Bfl-1 A1 inh | 0.0 | 0.8 | 1.9 | 0.3
Beta cell apopt | 21 | -2 | -8 | 10
Vif TR-FRET | 17% | . | . | 3%
Ecoli rRNA inh | -18 | -2 | 9 | .
T cruzi inh | 43 | -3 | . | -12
Calb FLC | ? | 0 | . | 9
RanGTP-Impb inh | 3.6 | -1.5 | . | 2.4
AF4-AF9 inh | 9.4 | -2.5 | 0.7 | .
Ecoli rRNA inh OD600 | -8 | 14 | 13 | .

Assay outcomes: PubChem, several laboratories

An excerpt; the hit share may differ from the screen's.
